B2AR ag: activates human beta-2 adrenergic receptor causing internalization; P07550; Am2.2-beta2AR cells, FAP receptor internalization, flow cytometry; reference of the scale not given here; response, % (test concentration not listed); 340,000 compounds, 0.43% hits; AID 504454;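 active = response above a set limit, near 3 SD of response in nonfluorescent compounds, cut at about 42% in these data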;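 also: stock transfer was 100 nL into about 11 µL; a reference agonist was the positive control; negative values mostly stem from fluorescent compounds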
UCH37 inh: blocks the human deubiquitinase UCH37 | Q9Y5K5 | purified proteasome/UCH37, Ub-AMC cleavage fluorescence | inhibition, % (no concentration beside the values) | 330,000 compounds, 0.33% hits | AID 588478;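 active = mean of two replicates above 20%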;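 also: 0% = compound-free wells with enzyme and 100% = wells lacking proteasome; stock transfer was 100 nL into about 20 µL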
Target sequence (Q9Y5K5 whole entry, looked up): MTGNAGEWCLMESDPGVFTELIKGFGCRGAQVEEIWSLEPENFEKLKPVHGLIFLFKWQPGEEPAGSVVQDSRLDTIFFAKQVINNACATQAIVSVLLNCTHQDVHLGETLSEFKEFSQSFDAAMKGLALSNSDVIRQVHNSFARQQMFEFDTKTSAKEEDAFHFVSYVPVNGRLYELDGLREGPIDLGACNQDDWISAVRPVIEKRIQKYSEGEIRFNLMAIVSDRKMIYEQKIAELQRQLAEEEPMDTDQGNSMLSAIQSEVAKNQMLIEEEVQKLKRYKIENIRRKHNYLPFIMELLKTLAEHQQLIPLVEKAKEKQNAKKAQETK
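Material: Human UCH37 enzyme supplied as purified proteasome complex | Schedule: 30 min preincubation with enzyme, 25 min cleavage at room temperature | Detection: AMC fluorescence 355/460 nm | Measure: % inhibition of Ub-AMC cleavage fluorescence | Controls: Wells without proteasome as full block, compound-free enzyme plus substrate as uninhibited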
LANA-H2B inh: blocks KSHV LANA binding to histone H2A/H2B; Q9QR71; cell-free LANA-H2A/H2B peptide, fluorescence polarization; inhibition, % (test concentration not listed); 320,000 compounds, 0.6% hits; in the data active = inhibition mostly above about 10%, no sharp cut-off; inactive = mostly below about 6.7%;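 also: stock transfer was 7.5 nL into about 10 µL; 0% = median of vehicle wells and 100% = median of positive control wells; one replicate is shown; the record names a cut of 25% in any replicate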
Bfl-1 A1 inh: inhibitors of the anti-apoptotic protein A1, read as caspase activation. MEF A1-2A-BIM cells, Caspase-Glo 3/7 luminescence, 3 h; percent of clofoctol response, vehicle zero. caspase activation, % (test concentration not listed). 330,000 compounds, 0.066% hits. AID 2462;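 active = over half of replicate activation scores above 10%, or exactly half above 10 with the replicate mean above 10; inconclusive = replicate mean below 10 yet half the replicates above 10; inactive = over half of replicates below 10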;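 also: wells of about 30 µL received 50 nL stock; many hits fall short of the cut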
Vif A3G: HIV-1 Vif–A3G interaction blockers – biochemical, TR-FRET, GST-Vif 1-94, biotin-A3G peptide, dose response retest, primary screen (AID 1117319). TR-FRET GST-Vif / biotin-A3G peptide binding; higher % means a stronger effect; test concentration not given here; strong numbers were not always called active. one-dose inhibition, %; IC50 in µM for titrated hits. 260,000 compounds, 0.57% hits;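 active = above the screen mean plus three standard deviations and confirmed in dose response; inconclusive = results disagree or hit not tested in dose response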;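 also: Vif residues 1-94 fused to GST binding biotinylated APOBEC3G peptide 110-148; 0% = full assay without inhibitor and 100% = GST in place of GST-Vif; retest series ran down from 100 µM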
Ecoli growth: E. coli growth inhibition; OD600 absorbance (test concentration not listed); 330,000 compounds, 0.21% hits; Escherichia coli growth, OD600, 23 h; active compounds read low;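 active = OD600 absorbance below the run mean of sample wells minus 3.6 SD, in any replicate, cut at about 0.56 in these data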;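 also: stock transfer was 300 nL into about 60 µL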
HNF4A DNA FP: change in binding of human HNF4 alpha to DNA. activity change, % at 10 µM. P41235. HNF4a-FITC DNA binding, fluorescence polarization, 1 h. 360,000 compounds, 0.3% hits; in the data active = activity change above about 30%, passing the limit was not always enough;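 also: controls were the assay level and a saturating level of protein; the project sought stronger binding though the title names inhibitors; some compounds called inactive have numbers as strong as hits; positive values seem to mean higher polarization but the record does not say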
Target sequence (P41235 whole entry, looked up): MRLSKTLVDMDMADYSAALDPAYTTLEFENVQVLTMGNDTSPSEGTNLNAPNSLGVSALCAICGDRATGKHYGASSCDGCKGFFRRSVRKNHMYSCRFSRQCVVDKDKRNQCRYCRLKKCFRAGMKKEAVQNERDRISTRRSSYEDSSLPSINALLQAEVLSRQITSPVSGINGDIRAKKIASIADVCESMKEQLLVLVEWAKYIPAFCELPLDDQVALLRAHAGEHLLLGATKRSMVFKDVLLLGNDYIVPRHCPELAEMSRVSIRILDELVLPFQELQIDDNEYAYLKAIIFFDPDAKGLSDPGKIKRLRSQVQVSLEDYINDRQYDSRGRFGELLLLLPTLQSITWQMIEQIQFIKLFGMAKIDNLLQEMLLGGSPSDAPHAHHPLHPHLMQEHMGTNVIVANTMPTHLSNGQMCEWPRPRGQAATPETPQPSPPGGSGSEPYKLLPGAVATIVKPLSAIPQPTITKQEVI
* marks the source's active call; other numbers are inactive results; ? = inconclusive; / = no result given. Compounds as they come; any-hit rate near 2.1%.

SMILES	B2AR ag	UCH37 inh	LANA-H2B inh	Bfl-1 A1 inh	Vif A3G	Ecoli growth	HNF4A DNA FP
Cc1ccc(C(=O)NC(=S)NNC(=O)COc2ccccc2C)cc1	-3.4	/	-5.7	-0.6	-12.8%	/	26.7*
CC(=O)Nc1ccc2nc(-c3ccc(Br)o3)[nH]c2c1	-6.5	2.1	-0.1	0.8	-5.7%	0.679	1.4
CCCCC(=O)Nc1nc(-c2ccc(S(=O)(=O)N3CCOCC3)cc2)cs1	-2.4	-3.9	3.2	-0.1	/	0.649	-5.2
O=C(Cn1cccc1C(=O)c1ccccc1)NCc1ccccn1	-3.1	5.2	0.4	-0.2	-1.7%	0.673	-2.2
COc1ccc(C(=O)NC(=S)N2CCN(c3ccccc3O)CC2)cc1	1.4	5.9	-6.9	0.0	/	0.64	0.5
O=[N+]([O-])c1ccc(O)c(/C=N/Nc2ccc(Cl)nn2)c1	-8.7	/	-4.3	0.8	-6.8%	/	1.1
C/C(N)=C(/C#N)C(=O)COC(=O)[C@@H](NC(=O)c1ccccc1Cl)C(C)C	2.1	-0.8	-4.9	-0.4	-3.8%	0.688	0.1
O=C(Nc1ccc(N2CCOCC2)cc1)c1cccc(-n2cnnc2)c1	-7.7	3.8	6.2	-0.1	/	0.686	2.2
Nc1ccccc1N=Nc1ccccc1N	9.0	0.4	-3.7	-6.2	/	0.655	-3.4
C/C=C\C=C\C(=O)Nc1cccc(C2=NOC3(C2)C[C@@H](C(N)=O)N(C(=O)C(c2ccccc2)c2ccccc2)C3)c1 (stereo partly specified)	-2.5	1.8	-1.6	-0.7	17.0%	/	4.2
CN1/C(=C/C2CC(=O)N(c3ccc([N+](=O)[O-])cc3)C2=O)C(C)(C)c2ccccc21 (stereo unspecified)	8.3	3.2	-9.1	0.9	7.1%	0.72	0.9
O=S(=O)(c1cccs1)N1CCN(c2ccccc2)CC1	-0.8	2.3	2.9	0.5	/	0.706	2.3
CCN(CC(=O)NCc1ccc(Cl)cc1)CC(=O)NC1(C#N)CCCC1	2.0	-0.6	6.1	-0.3	/	0.642	-0.7
CC(C)[C@H](NS(=O)(=O)c1ccccc1)C(=O)OCC(=O)NC(=O)NC1CCCCC1	-2.4	4.9	-2.2	-1.0	-0.6%	0.713	-0.2
COc1ccccc1N1CC(C(=O)OCC(=O)c2ccc(F)cc2)CC1=O (stereo unspecified)	2.4	3.5	2.1	0.2	-0.3%	0.707	0.3
O=C(COC(=O)c1cc(Cl)ccc1O)NC(=O)NCc1ccccc1	-1.1	-47.0	-2.4	2.2	-26.6%	0.691	-5.4
CCCCn1c(CCl)nc2cc(S(=O)(=O)N3CCOCC3)ccc21	20.6	0.5	-2.3	0.3	/	0.678	-8.1
Cc1ccc(-c2cc(C(=O)Nc3c(C)n(C)n(-c4ccccc4)c3=O)no2)cc1	1.0	3.2	-1.1	0.2	-0.8%	0.699	5.1
COc1cccc(NC(=O)CCc2nnc3ccc(N4CCN(c5cccc(OC)c5)CC4)nn23)c1	5.7	-2.9	3.9	-0.2	/	0.671	1.7
CCOC(=O)c1c(C)[nH]c(C(C)=O)c1C	0.4	2.2	0.9	0.2	-4.4%	0.719	-3.5
CCC1(C)Cc2c(c(=O)n(-c3ccccc3)c3ncnc(N)c23)CO1 (stereo unspecified)	-9.4	-5.3	-0.4	0.0	-4.6%	0.722	-0.6
O=C1OCCN1C(=O)[C@H]1[C@H](c2ccccc2)C(c2cccc(Cl)c2)=NN1c1ccccc1	-2.7	-372.9	/	/	5.1%	0.718	2.1
O=C(CCNS(=O)(=O)c1ccc(Br)cc1)NCCCSc1ccccc1	-2.8	3.7	2.0	0.7	-3.3%	0.703	3.7
O=C(c1ccco1)N1CCN(c2ccc(N3CCCCC3)nn2)CC1	2.8	-71.5	0.9	-0.9	0.4%	0.679	1.3
COc1ccc(OCCn2cc(/C=C(\C#N)C(=O)NCc3ccco3)c3ccccc32)cc1	-0.5	-33.0	2.1	-0.1	6.5%	0.706	6.6
O=C(COC(=O)CSCc1ccccc1)NCc1ccccc1	-9.3	1.0	7.5	-0.9	1.8%	0.678	-2.7
O=C(O)CCCN1C(=O)/C(=C\c2ccccc2OCc2ccccc2)SC1=S	0.7	4.6	-5.2	-1.9	/	0.688	50.9*
Cc1ccc(C(=O)Nc2ccc(C(=O)N3CCCCC3C)cc2)cc1 (stereo unspecified)	10.2	1.8	-2.3	1.2	-4.6%	0.715	3.8
Cc1cc(NS(=O)(=O)c2ccc(Nc3nc(-c4ccc(C)c(C)c4)cs3)cc2)no1	12.8	4.9	1.3	-0.5	1.6%	0.678	2.7
CC1CC(C)CN(C(=O)Cn2c(-c3nonc3N)nc3ccccc32)C1 (stereo unspecified)	4.9	2.6	2.8	0.5	10.1%	0.686	1.3

Two records picked at random from those above, as already listed:
SMILES	B2AR ag	UCH37 inh	LANA-H2B inh	Bfl-1 A1 inh	Vif A3G	Ecoli growth	HNF4A DNA FP
CCC1(C)Cc2c(c(=O)n(-c3ccccc3)c3ncnc(N)c23)CO1 (stereo unspecified)	-9.4	-5.3	-0.4	0.0	-4.6%	0.722	-0.6
CCCCn1c(CCl)nc2cc(S(=O)(=O)N3CCOCC3)ccc21	20.6	0.5	-2.3	0.3	/	0.678	-8.1

More records follow:
SMILES	B2AR ag	UCH37 inh	LANA-H2B inh	Bfl-1 A1 inh	Vif A3G	Ecoli growth	HNF4A DNA FP
COc1ccc(NC(=S)N=Nc2c(O)[nH]c3ccccc23)cc1	12.5	3.2	-3.4	0.5	6.0%	0.683	3.0
O=C(NCc1ccccc1)C1=C[C@@H](c2ccc3c(c2)OCO3)C[C@@H](OCc2ccc(CO)cc2)O1	0.3	3.2	3.1	0.9	/	/	-3.3
CCCN1CCC(NC(=O)Nc2ccc(OC)c(OC)c2)CC1	7.6	0.4	1.3	0.0	8.2%	0.696	-0.1
N#Cc1c(Nc2ccccc2Cl)s[nH]c1=O	7.3	5.1	3.4	-1.3	/	0.625	3.2
O=C(C1CCCO1)N1CCN(C(=S)Nc2ccc(Cl)cc2Cl)CC1 (stereo unspecified)	1.4	5.4	1.4	0.0	/	0.685	1.2
CCCCNS(=O)(=O)c1ccc(OCC(=O)OC)cc1	5.8	2.2	-3.5	2.1	/	0.659	-3.4
Cc1cc(C)cc(N2C(=O)CCN(Cc3ccccc3)C2=O)c1	1.3	1.3	-0.3	0.5	-10.8%	0.63	-1.9
Cc1ccc(NC(=S)NC2CCN(Cc3ccccc3)CC2)cc1C	0.7	1.2	-2.5	0.4	2.9%	0.697	2.1
Cc1ccc(S(=O)(=O)N2CCCC2C(=O)NC2=NCCS2)cc1 (stereo unspecified)	-2.9	-1.1	9.6	0.5	1.4%	0.678	-1.6
Cc1ccccc1C(OCC(O)CN1CCCCC1CCO)c1ccccc1 (stereo unspecified)	21.8	4.7	-1.9	1.4	-1.7%	0.717	3.3
COc1cc(CNCCSc2nnnn2C)cc(OC)c1OC	1.4	-0.4	0.2	0.1	6.0%	0.681	0.4
CC(C)c1ccc(NC(=O)[C@H](NC(=O)[C@@H]2Cc3ccccc3CN2)c2ccccc2)cc1	3.1	0.2	0.6	0.9	3.7%	0.658	1.0
COc1ccc2cc3cc(C(=O)N4CCN(Cc5ccc6c(c5)OCO6)CC4)oc3nc2c1	19.2	-260.3	11.5	0.5	17.1%	0.754	1.4
Cc1ccc(S(=O)(=O)N(C#N)c2nc(C)cc(C)n2)cc1	1.4	4.8	1.4	1.4	0.7%	0.722	1.5
OCCNc1nc(N2CCN(Cc3ccccc3)CC2)nc2ccccc12	-6.3	-40.1	-0.9	-0.2	1.0%	0.665	-1.3
Cc1cccc(C(=O)N/N=C/c2ccoc2)c1	-1.8	/	3.4	-0.3	/	/	-5.8
Cc1occc1-c1nnc(SCC(=O)Nc2ccccc2-c2ccccc2)n1C	5.2	-1.3	4.1	0.2	0.9%	0.698	0.4
Cc1cc(=O)oc2cc(OCC3CC(c4ccc(N(C)C)cc4)=NO3)ccc12 (stereo unspecified)	1.7	-2.8	-4.3	0.5	-5.0%	0.722	2.8
CC(=O)Nc1ccc(NC(=O)Cn2cc3c(n2)CCCC3)cc1	0.5	-1.9	1.4	0.0	-2.3%	0.737	-2.4
COc1ccc(CCNC(=O)COC(=O)C2CC2C)cc1 (stereo unspecified)	-0.6	4.8	-7.2	-0.3	-0.1%	0.679	4.3
C=CCc1ccccc1Oc1cc(F)nc(N)n1	-3.4	0.0	2.6	-0.9	-6.7%	0.646	-0.2
O=C(c1n[nH]c2c1CCC2)N1CCCC(Nc2cccc(F)c2)C1 (stereo unspecified)	1.8	6.3	2.9	0.1	/	0.654	-0.7
Brc1ccc(-c2cn3c(n2)CCc2ccc4cccnc4c2-3)cc1	-2.6	-65.2	-6.1	0.8	-4.9%	0.677	1.0
CC(=O)NC(NC(=S)Nc1ccc(N=Nc2ccccc2)cc1)C(Cl)(Cl)Cl (stereo unspecified)	11.8	6.4	-0.8	-0.8	-5.5%	0.686	-5.0
CCC(=O)N(Cc1cc2cc(C)c(C)cc2[nH]c1=O)C1CCCCC1	-4.6	0.2	-3.1	0.3	4.1%	0.678	1.2
CCOC(=O)CC(=O)Nc1ccccc1C(=O)O	5.3	-0.5	0.4	-0.9	14.7%	0.711	-2.5
CCOc1ccc2nc(SCC(=O)Nc3cc4c(cc3C(C)=O)OCO4)[nH]c2c1	-3.7	0.2	-0.4	0.5	-1.2%	0.659	-2.0
CCOc1ccccc1/C=C\c1nc(O)c([N+](=O)[O-])c(=O)[nH]1	-1.3	16.8	1.0	0.7	3.2%	0.676	1.2
CCNC(=O)/C(C#N)=C/c1c(N(Cc2ccccc2)Cc2ccccc2)nc2ccccn2c1=O	23.0	4.8	0.9	0.1	/	0.708	0.0
COc1ccc(NC(=O)NCc2ccncc2)c(OC)c1	4.9	3.0	1.2	0.4	5.0%	0.68	1.9
O=C(NNC(=O)c1ccc(Cl)cc1Cl)Nc1ccccc1	2.9	0.7	-8.4	0.7	/	0.631	-1.9
Cc1cc(C)nc(NS(=O)(=O)c2ccc(NC(=O)Nc3ccccc3F)cc2)n1	8.2	7.3	2.3	-2.7	15.6%	0.657	4.1
O=C(Nc1ccc2c(c1)OCO2)c1cccs1	-8.8	1.8	-0.2	-9.0	15.3%	0.713	-2.3
O=c1nc(-c2ccccc2)c2ccccc2[nH]1	60.4*	-66.6	-4.2	0.1	3.5%	0.694	-0.6
COc1ccccc1-n1c(=S)[nH]c2c(sc(=S)n2-c2ccc(C)cc2C)c1=O	-2.0	13.0	-1.8	-0.4	27.2%	0.714	-3.3
CC1(C)COC(c2coc3ccccc3c2=O)OC1	9.9	-3.0	3.4	-0.3	0.1%	0.681	-2.6
CCNC(=O)N1CCCC(C(=O)c2ccc(C(F)(F)F)cc2)C1 (stereo unspecified)	-3.2	4.2	-11.1	1.4	/	0.658	1.9
Cc1ccc(-n2nc(C)c3c(C)c(CCC(=O)NC(C)c4ccccc4)c(C)nc32)cc1 (stereo unspecified)	-9.6	-67.2	-3.5	0.8	?	0.79	-3.8
COc1ccc(CN(C)Cc2nc(Cc3cccc(F)c3)no2)c2cccnc12	3.7	3.8	0.4	0.5	/	0.629	-0.2
CC(Oc1ccc(Cl)cc1Cl)C(=O)Nc1ccc(S(=O)(=O)Nc2cnc3ccccc3n2)cc1 (stereo unspecified)	/	-9.9	-4.4	-0.2	7.3%	0.792	/
CCN(CC)C(=O)[C@H]1CC(CC(=O)NC(C)(C)C)C(=O)N2CCc3c([nH]c4ccccc34)[C@]12C (stereo partly specified)	0.0	3.2	-427.8	0.2	-0.5%	0.679	-0.1
COc1ccc(C2=NOC(C(=O)N(C)Cc3ccccc3)C2)cc1 (stereo unspecified)	8.8	0.6	-1.2	0.5	2.8%	0.689	-5.8
O=C(/C=C/c1cccs1)NC1CCCC1	-3.0	2.6	1.5	0.9	/	0.717	-1.1
